Compound activity deposited in PubChem BioAssay by National Center for Advancing Translational Sciences (NCATS).
StopGo FLuc – FMDV 2A StopGo reporter, firefly signal | HEK cells with a luciferase reporter of 2A StopGo recoding | Potency, µM (top dose mostly 57.5 µM), without a hit: top-dose signal change, negative = less light | 120,000 compounds, 0.23% hits | AID 1745856; active = well fitted falling curve with a large enough effect; inconclusive = small, poorly fitted or top-dose-only effect; inactive = no such curve, though single readings can be large or run the other way; note: nearly all actives have a fitted effect of over 60% in size; overnight with compound
2A Renilla – lowers the Renilla signal of an FMDV 2A StopGo reporter. HEK cells with a luciferase reporter of 2A StopGo recoding. Potency, µM (doses to about 57.5 µM), without a hit: at the highest dose signal change, negative = less light. 120,000 compounds, 0.32% hits. AID 1745857; active means well fitted falling curve with a large enough effect; inconclusive means small, poorly fitted or top-dose-only effect; inactive means no such curve, though single readings can be large or run the other way; note: nearly all actives have a fitted effect of over 55% in size; overnight with compound
* marks the source's active call; other numbers are inactive results; ? = inconclusive; [ ] = remark or other dose. % is set by controls: 0 for no effect and ±100 for the full control effect; potency is the fitted concentration of half-maximal effect. Some of the compounds tested (hit frequency here may not be typical).

entry | SMILES | StopGo FLuc | 2A Renilla
1 | CCc1ccc2oc(=O)cc(CN3CCC4(CC3)OCCO4)c2c1 | -8% | -6%
2 | Cc1cc2ccccn2c1C(=O)c1ccc(-c2ccccc2)cc1 | 0% | -8%
3 | COC(=O)c1cccc2c1CCCN2C(=O)c1cnc2c(cnn2C(C)C)c1 | ? | ?
4 | Cc1ccc(CNC(=O)CCCCCn2c(=O)[nH]c3ccccc3c2=O)cc1 | 25% | 91%[activator]
5 | CCc1cccc(-n2nnc(-c3nc(-c4ccccc4Cl)no3)c2N)c1 | -2% | 0%
6 | CC1CCCN(S(=O)(=O)c2cc3ccccc3oc2=O)C1 (stereo not given) | -9% | -6%
7 | Cc1ccc(C(=O)C(C)Oc2ccc3ccc(=O)oc3c2)cc1 (stereo not given) | 14% | 8%
8 | Cc1ccccc1OCCn1cc(C(=O)c2ccco2)c2ccccc21 | -15% | -12%
9 | Cc1ncc(-c2ccc(C)c(S(=O)(=O)Nc3cccc(Cl)c3C)c2)o1 | -2% | 229%[activator]
10 | Cn1c(=O)ccn(CC(=O)Nc2nc(C3CC3)cs2)c1=O | 182%[activator] | -3%
11 | Cc1nc(SCC(=O)Nc2ccc3c(c2)OCCCO3)c(C#N)c(C)c1C | 168%[activator] | 5%
12 | CC(=O)c1c(C)n(-c2ccc(C)cc2C)c2ccc(OCC(N)=O)cc12 | -4% | -14%
13 | CCOC(=O)c1cccc(NC(=O)N2CC(CC)Oc3ccccc32)c1 (stereo not given) | 12% | 0%
14 | O=C(Cn1cccc1-c1nc(-c2ccc(F)c(Br)c2)no1)NC1CCCC1 | 25% | -10%
15 | CCOc1cc(C2CC(=O)Nc3c2c(=O)nc(SCc2cccc(Cl)c2)n3C)ccc1O (stereo not given) | -5% | 18%
16 | Cc1ccc2c(c1)Cc1cc3cccc(C)c3nc1-2 | 213%[activator] | 14%
17 | COc1cccc(NC(=O)C(C)OC(=O)c2ccc3ccccc3n2)c1 (stereo not given) | -1% | -6%
18 | CCCCc1ccc2nc(NC(=O)c3ccc(F)cc3)sc2c1 | 124%[activator] | 17%
19 | COc1nc2ccccc2cc1-c1noc(-c2cccc(C)c2)n1 | 7% | -3%
20 | CCCNC(=S)NNC(=O)c1cccc(N(C)C)c1 | 0% | 46%[activator]
21 | COc1ccc(Br)cc1CNC(=O)c1ccc2c(c1)N(Cc1ccc(C)cc1)CCS2 | 24% | 55%[activator]
22 | CCCNC(=O)c1cnn2c(C(F)F)cc(-c3ccccc3)nc12 | -5% | 15%
23 | CCOc1ccc(CCNC(=O)c2nc(-c3cccc(F)c3)n3c2CCCCC3)cc1OCC | ? | -26%
24 | COc1ccc(N2CCN(C(=O)CCc3c(C)nc4cc(-c5ccc(OC)cc5OC)nn4c3C)CC2)cc1 | -20% | -15%
25 | COc1ccc(NC(=O)CSC2=Nc3ccccc3C3=NC(Cc4ccccc4)C(=O)N23)cc1 (stereo not given) | 7% | 74%[activator]
26 | Cc1ccccc1C(=O)Nc1ccc(C(=O)NNC(=S)Nc2ccccc2)cc1 | 25% | 11%
27 | CCCNC(=O)c1cc2ccc(OC)cc2nc1C | 39%[activator] | 4%
28 | Cc1ccccc1C1CCCN1S(=O)(=O)c1ccc(C(C)(C)C)cc1 (stereo not given) | -4% | 26%
29 | COc1ccc(C(=O)NCC(c2cccnc2)N2CCN(c3ccccc3F)CC2)cc1OC (stereo not given) | -21% | -14%
30 | Cc1ccccc1C(=O)Nc1cccc(C(=O)OCc2cc(=O)n3nc(C4CC4)sc3n2)c1 | 0% | -5%
31 | O=C(Cc1ccc(Cl)cc1)NCC(c1cccs1)S(=O)(=O)c1ccccc1 (stereo not given) | -17% | 11%
32 | CCCN(Cc1ccc(OC)cc1)Cc1cc(=O)oc2ccc(C)cc12 | 7% | 13%
33 | COc1ccc(Cn2c(C(=O)O)c(CNC3CCCC3)c3ccc(C)cc32)cc1 | 8% | 0%
34 | CCOc1ccccc1CN(CCc1ccc2c(c1)OCO2)Cc1ccc(CC)cc1 | 1% | 8%
35 | FC(F)(F)c1cc(-c2ccccn2)nc2c(-c3ccc(Cl)cc3)cnn12 | -12% | -5%
36 | CCCNc1nc(-c2[nH]c(C)c(C(C)=O)c2C)cs1 | 91%[activator] | 175%[activator]
37 | Cc1ccc(C)c(Nc2cc(C(=O)NC3CCCCC3)c3ccccc3n2)c1 | 9% | 40%[activator]
38 | CCn1ccc2cc(S(=O)(=O)N3CCCN(C(=O)Nc4cccc(SC)c4)CC3)ccc21 | 7% | 67%[activator]
39 | COC(=O)C1=CN(Cc2cccs2)C=C(C(=O)OC)C1c1ccc(Cl)c(F)c1 | ? | -23%
40 | Cc1ccc(NC(=O)Nc2cn(C)c(=O)c3ccccc23)c(Cl)c1 | 23% | -5%
41 | COc1cc(NS(=O)(=O)c2cnc(N)nc2)cc(OC)c1 | -14% | 24%
42 | Cc1ccc(C(=O)Nc2cc3c(cc2N2CCCC2)n(C)c(=O)c(=O)n3C)cc1 | -8% | 8%
43 | Cc1ccccc1C1CC(=O)NC2=C1C(=O)CC(C)(C)C2 (stereo not given) | 14% | 2%
44 | Cc1ccc(S(=O)(=O)Nc2cnc3ccccc3c2)c(C)c1C | ? | 58%[activator]
45 | C/C(=N\O)c1cccc(-n2cccc2)c1 | 0% | 6%
46 | COc1ccc(-c2cc(C(F)(F)F)nc(SCCC(=O)N3CCCC3)n2)cc1 | 22% | 18%
47 | CC1(C)Cc2c(C#N)c(Nc3ccccc3)n3c(SCC(=O)N4CCCCC4)nnc3c2CO1 | 0% | 28%
48 | Cc1cc(=O)oc2cc(NC(=O)N(C)Cc3ccc(Br)cc3)ccc12 | 15% | 4%

Retrieved by structure from the list above:
entry | SMILES | StopGo FLuc | 2A Renilla
40 | Cc1ccc(NC(=O)Nc2cn(C)c(=O)c3ccccc23)c(Cl)c1 | 23% | -5%
39 | COC(=O)C1=CN(Cc2cccs2)C=C(C(=O)OC)C1c1ccc(Cl)c(F)c1 | ? | -23%

(cont.)
entry | SMILES | StopGo FLuc | 2A Renilla
49 | Cc1ccccc1C(=O)N[C@H]1C[C@@H]2CC[C@H]1C2 | 55% | 41%[activator]
50 | Cc1sc(NC(=O)Cc2ccccc2)c(C#N)c1C | 12% | 3%
51 | Cc1ccc(NC(=O)CSc2nc3ccccc3nc2Cc2ccccc2)c(C)c1 | -8% | -11%
52 | CCN1C(=O)c2ccccc2Sc2ccc(NC(=O)Cc3ccc(OC)cc3)cc21 | -14% | -3%
53 | Cc1ccc(CNC(=O)c2ccc3c(c2)c(C)c(C)n3Cc2ccccc2)o1 | 35%[activator] | 44%[activator]
54 | CC(=O)c1cccc(NS(=O)(=O)c2ccc3[nH]c4c(c3c2)CCCCCC4)c1 | ? | 4%
55 | CCOc1ccc(C(=O)Nc2cccc(-c3nc4cc(C)ccc4o3)c2)cc1 | 1% | -7%
56 | COc1ccc([C@@H]2Sc3ccccc3N(CCN(C)C)C(=O)[C@@H]2OC(C)=O)cc1 | -16%[11.5 µM] | -17%
57 | CC(NCc1ccc2c(c1)n(C)c(=O)n2C)c1ccccc1 (stereo not given) | -10% | -11%
58 | O/N=C/c1ccc(OCc2ccc(Cl)c(Cl)c2)cc1 | 0% | ?
59 | COc1cc(OC)c2c(C)c(CC(=O)NCc3ccc4c(c3)OCO4)c(=O)oc2c1 | -9% | -16%
60 | CC(=O)c1ccc(NC(=O)C2=CC(c3cccs3)=NS(=O)(=O)N2C)cc1 | 47%[activator] | 10%
61 | C=CCn1c(N2CCOCC2)nc2c1c(=O)n(C)c(=O)n2C | -3% | -4%
62 | Nc1ncc(-c2ccccc2)c(-c2ccc(OCc3ccccc3F)cc2O)n1 | -14% | -7%
63 | CCCCN(C)CCC(=O)Nc1ccc(Cl)cc1 | 45%[activator] | 29%
64 | Cc1ccccc1C(=O)N1CCN(c2ccc(NC(=O)c3ccc(OC(C)C)cc3)cc2)CC1 | ? | ?
65 | Cc1ccc(NC(=O)CN(C)C(=O)C2CCN(c3ccc(C(F)(F)F)cn3)CC2)cc1 | 4% | -3%
66 | O=C(O)COc1ccc(C(=O)/C=C/c2ccc(Cl)cc2Cl)cc1 | -24% | -15%
67 | Cc1ccc(S(=O)(=O)N2CCOCC2)cc1C(=O)N(Cc1ccco1)C1CCS(=O)(=O)C1 (stereo not given) | 5% | -2%
68 | O=C(NCC(=O)N1CCCC1c1ccccc1)c1ccc(Cl)cc1 (stereo not given) | 16% | 12%
69 | CC(C)Cc1ccc(C(=O)/C=C/c2ccc(C(=O)O)cc2)cc1 | 42%[activator] | 3%
70 | COc1ccccc1NC(=O)CSc1cn(CC(=O)N2CCCC2)c2ccccc12 | -18% | -5%
71 | N#Cc1nc(-c2ccc(S(=O)(=O)N3CCCCCC3)cc2)oc1NCc1cccnc1 | 0% | 253%[activator]
72 | Cc1ccc(COC(=O)c2ccccc2Nc2ccccc2)cc1 | 0% | -6%[1.06 µM]
73 | CCc1ccc(S(=O)(=O)c2nnn3c2nc(NC2CCCC2)c2sccc23)cc1 | -13% | 6%
74 | CCN(C(=O)CSc1nc2ccccc2o1)c1ccccc1 | 33%[activator] | 27%
75 | Cc1ccc2c(CSc3ncn[nH]3)cc(=O)oc2c1C | 104%[activator] | 16%
76 | Cc1ccc(CCNC(=O)c2ccc3nc4ccc(Cl)cc4c(=O)n3c2)cc1 | 0% | 11%
77 | Cc1ccc(Nc2nc(NC3CCCC3)nc3c2cnn3-c2ccccc2)cc1C | 12% | 2%
78 | COc1cccc(/C=C(\C#N)c2ccccc2)c1OC(C)C | 21% | 17%
79 | COc1ccc2c(CNCCc3ccco3)c(C(=O)O)n(Cc3ccc(F)cc3)c2c1 | 0% | 56%[activator]
80 | COC(=O)COc1nc(C(C)C)c2c(c1C#N)CCCC2 | -3% | -5%
81 | CC(C)(C)c1ccc(C(=O)Nc2nnc3n2CCS3)cc1 | 67%[activator] | 0%
82 | CCN(CC)S(=O)(=O)c1ccc(OC)c(NC(=O)c2nn(C(C)C)c(=O)c3ccccc23)c1 | -10% | -7%
83 | CC1(C)OC(c2ccccc2)=C/C(=C/C=C(C#N)C#N)O1 | 15% | -19%
84 | CC(=O)Nc1cccc(NC(=O)c2ccc3c(c2)S(=O)(=O)N=C(C)N3CC(C)C)c1 | 2% | -3%
85 | COc1ccc(-c2c(C)nn3c2NC(=O)CCC3=O)cc1S(=O)(=O)Nc1cccc2c1CCCC2 | 7% | 72%[activator]
86 | Cc1ccc(S(=O)(=O)C(CNC(=O)C(=O)NCCc2ccc(Cl)cc2)c2ccco2)cc1 (stereo not given) | -21% | 22%
87 | Cc1cc(=O)oc2cc(OCC(=O)NC3(C#N)CCCCC3)c(Cl)cc12 | 5% | -1%
88 | COc1ccc(OC)c(NC(=O)N(C)CCc2noc(C(=O)NCc3ccccc3)n2)c1 | 6% | 9%
89 | COc1cc(C(C)NS(C)(=O)=O)ccc1OCCC(C)C (stereo not given) | 36%[activator] | -2%
90 | NCC1CCN(C2CCCCC2)CC1 | 20% | -5%
91 | COc1cc(/C=N/OCc2cccc3ccccc23)ccc1OCc1ccc(Cl)cc1 | 33%[activator] | 14%
92 | COc1ccc(C2C(C#N)=C(N)OC(C(C)(C)C)=C2C#N)c(OC)c1OC (stereo not given) | 3% | -1%
93 | O=[N+]([O-])c1cc(S(=O)(=O)Nc2ccc(Cl)cc2)ccc1N/N=C/c1ccccc1F | 23% | 197%[activator]
94 | COc1ccc(NC(=O)Cn2c(=O)c3cccn3c3ccccc32)cc1 | -25% | 2%
95 | COc1cc(NC(=O)c2ccc(Cn3cc(Br)cn3)cc2)ccc1OC(F)F | ? | ?
96 | COc1ccc(-n2c(=O)c3c(c4cc(OC)ccc4n3C)n(C)c2=O)cc1 | -4% | -13%

4 structures from above, sorted by SMILES length, smallest number first.
entry | SMILES | StopGo FLuc | 2A Renilla
75 | Cc1ccc2c(CSc3ncn[nH]3)cc(=O)oc2c1C | 104%[activator] | 16%
89 | COc1cc(C(C)NS(C)(=O)=O)ccc1OCCC(C)C (stereo not given) | 36%[activator] | -2%
68 | O=C(NCC(=O)N1CCCC1c1ccccc1)c1ccc(Cl)cc1 (stereo not given) | 16% | 12%
86 | Cc1ccc(S(=O)(=O)C(CNC(=O)C(=O)NCCc2ccc(Cl)cc2)c2ccco2)cc1 (stereo not given) | -21% | 22%

Next section
entry | SMILES | StopGo FLuc | 2A Renilla
97 | O=C(Nc1nnc(S(=O)(=O)N2CCc3ccccc32)s1)c1ccccc1Cl | -10% | 2%
98 | Cc1ccc(Cl)cc1NC(=O)N[C@H](CC(C)C)C(=O)O | -5% | -16%
99 | CC(CSc1ncccn1)Cn1c(Br)nc2c1c(=O)[nH]c(=O)n2C (stereo not given) | -7% | -19%
100 | CN(C(=O)Cn1nc(Cc2cccnc2)c2ccccc2c1=O)c1ccc(F)cc1 | 3% | 7%
101 | O=C(c1ccc(Br)cc1)N(Cc1cccc2[nH]ccc12)C1CC1 | 4% | 224%[activator]
102 | COc1ccc(Cc2nnc(/C=C/c3ccc(C)cc3)o2)cc1 | 90%[activator] | 13%
103 | COc1ccc(CNCCc2c[nH]c3ccccc23)c(OC)c1 | -16% | -16%
104 | COc1ccc(NC(=O)C(C)n2nc(C(=O)O)c3ccccc3c2=O)cc1 (stereo not given) | 0% | 19%
105 | O=C(CNc1nc(-c2ccccc2)nc2ccccc12)NC1CC1 | 50%[activator] | 33%
106 | CCc1ccccc1N1C(=O)c2sc3nc(C)cc(COC)c3c2NC1C (stereo not given) | 13% | 15%
107 | Cc1onc(-c2c(F)cccc2Cl)c1C(=O)Nc1ccc(OC(C)C)cc1 | -11% | -4%
108 | CC(=O)c1ccc(NC(=O)Cn2ccc3cc(Cl)ccc32)cc1 | 56%[activator] | 69%[activator]
109 | O=C(O)COc1ccc(/C=C2\NC(=O)NC2=O)cc1Br | 19% | -6%
110 | COc1ccc(Oc2coc3cc(OC(=O)c4ccc(Br)cc4)ccc3c2=O)cc1 | 14% | 1%
